RecA splice inh: inhibitors of M. tuberculosis RecA intein splicing; inhibition, %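 (about 9 µM by stock and volumes)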; cell-free RecA intein splicing, fluorescence; hit rate 0.75% among 290,000; P9WHJ3; AID 2221; in the data active means inhibition above about 30%; inconclusive means no clear call, values can overlap the other calls;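 further: 0% = vehicle wells and 100% = reference inhibitor control wells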
Target sequence (P9WHJ3 whole entry, looked up, canonical isoform): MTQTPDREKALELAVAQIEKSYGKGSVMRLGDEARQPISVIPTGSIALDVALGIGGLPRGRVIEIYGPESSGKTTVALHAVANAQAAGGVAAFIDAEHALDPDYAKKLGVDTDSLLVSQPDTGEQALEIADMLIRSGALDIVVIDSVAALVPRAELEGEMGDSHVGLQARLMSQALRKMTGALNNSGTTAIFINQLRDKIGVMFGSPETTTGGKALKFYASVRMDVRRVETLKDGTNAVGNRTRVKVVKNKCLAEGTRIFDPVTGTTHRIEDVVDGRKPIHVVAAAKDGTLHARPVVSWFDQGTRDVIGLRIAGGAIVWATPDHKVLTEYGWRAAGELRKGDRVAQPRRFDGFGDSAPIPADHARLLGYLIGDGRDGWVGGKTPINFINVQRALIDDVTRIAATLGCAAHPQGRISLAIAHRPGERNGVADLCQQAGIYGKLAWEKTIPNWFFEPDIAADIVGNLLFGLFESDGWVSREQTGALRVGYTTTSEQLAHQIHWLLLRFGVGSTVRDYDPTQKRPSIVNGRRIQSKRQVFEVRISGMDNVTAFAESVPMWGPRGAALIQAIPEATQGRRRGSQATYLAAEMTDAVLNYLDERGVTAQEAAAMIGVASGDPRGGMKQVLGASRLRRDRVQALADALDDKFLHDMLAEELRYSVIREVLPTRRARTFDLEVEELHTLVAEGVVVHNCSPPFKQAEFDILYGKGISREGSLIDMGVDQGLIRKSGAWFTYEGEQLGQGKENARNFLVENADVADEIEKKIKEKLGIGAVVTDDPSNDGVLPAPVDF
YopH inh: YopH (Yersinia) phosphatase inhibition | inhibition, %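 (about 10 µM by stock and volumes)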 | hit rate 0.16% among 140,000 | fluorescence Ex485/Em525;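 active means inhibition of 50% or more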;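 further: controls were vehicle for no effect and minimum signal wells for full effect; inactives centre near -20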
Mtb growth: M. tuberculosis H37Rv growth inhibitors, H37Rv strain (AID 1626) | M. tuberculosis H37Rv growth inhibition; higher % means a stronger effect | inhibition, % at 10 µM; hits with a dose series show IC50 in µM | hit rate 0.95% among 220,000;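 active means confirmed in a dose series; inconclusive means inhibition above 80% but not taken into the dose series; inactive means below 80% or under 30% at every dose of the series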;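 further: bacteria incubated seven days before Alamar blue readout; 0% = bacteria only wells and 100% = bacteria with antibiotic wells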
Arbovirus anti: antivirals against arbovirus infection. arbovirus infection cell-based antiviral screen. inhibition, % at 10 µM. hit rate 0.37% among 200,000. AID 1251;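 active means inhibition from about 30%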;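 further: bluetongue infection of BSR cells; cell survival read as ATP light after 72 h; 0% = infected wells without compound and 100% = uninfected wells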
Mtb betalactam: beta-lactam sensitization of Mtb H37Rv | inhibition, % at 25 µM | M. tuberculosis H37Rv growth with meropenem, percent inhibition; hits of this screen are not shown here | hit rate 0.27% among 330,000 | AID 434955;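 active means about 74% or more and at least 40 points above the plate without the antibiotic, then above 30% in a dose series; inconclusive means first-round hits that could not be retested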;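 further: growth measured after seven days incubation then overnight dye step; 0% = bacteria only wells and 100% = bacteria with antibiotic; twin plates without the antibiotic show which effects depend on it; some results filed as inactive read as strong as hits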
Arbovirus anti repeat: recorded beside Arbovirus anti, whose call it bears; inhibition, %; measured here: 10K subset replicate screen; many hits read low in the repeat;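 first of two repeat runs on a subset; 0% = infected and 100% = uninfected wells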
* marks the source's active call; other numbers are inactive results; ? = inconclusive; nt = no result given. Only part of the results is shown; rates above refer to the full screens.

SMILES	RecA splice inh	YopH inh	Mtb growth	Arbovirus anti	Mtb betalactam	others
COc1cc(C=O)ccc1OCc1cccc(Br)c1	3.7	-10	9%	-1	5
CCCn1c2ccccc2c2cnn(CC(=O)NC(C)CC)c(=O)c21 (stereo not drawn)	-6.5	nt	nt	nt	11
CCOC(=O)CN(C(=O)COc1nc(C)cc(C)c1C#N)c1ccc(Cl)cc1	0.5	nt	0%	nt	-5
Cc1nc(N2CCN(c3ccccc3O)CC2)c2c(-c3ccccc3)csc2n1	11	nt	nt	nt	52
CC1CCN(S(=O)(=O)c2ccc3c(c2)N(CC(=O)NCCCOC(C)C)C(=O)CS3)CC1	2.7	nt	nt	nt	3
CCc1cc2cc(C(=O)Nc3ccc(F)cc3)sc2s1	-1.3	-20	0.51µM*	-4	99
O=C(CCC(=O)Nc1ccc(F)cc1)N/N=C/c1cccnc1	-0.3	nt	nt	nt	-4
O=C(Cc1c(O)c2ccccc2oc1=O)c1ccc(C(F)(F)F)cc1	-6.4	nt	nt	nt	-4
CC(C)CCNC(=O)NC(=O)CSc1ncccn1	-0.8	nt	7%	10	2
Cc1cc(C)nc(NS(=O)(=O)c2ccc(NC(=O)C3(c4ccc([N+](=O)[O-])cc4)CCCC3)cc2)n1	4.8	-2	-3%	2	13
CCCCN(C(=O)c1ccc([N+](=O)[O-])s1)c1c(N)n(CC(C)C)c(=O)[nH]c1=O	-11	nt	nt	nt	-9
O=C(Cc1csc(N2CCOCC2)n1)N/N=C/c1ccc(O)c(O)c1O	-6.1	nt	7%	6	nt
CC(C)CC(=O)Nc1cccc(-c2cn3ccsc3n2)c1	-1.0	-26	1%	-7	-3
O=C(CCNS(=O)(=O)c1ccc(Cl)cc1)NCc1cccs1	0.0	nt	14%	11	-2
N#Cc1c(C(F)(F)F)cc(-c2ccc(F)cc2)[nH]c1=O	-11	nt	-2%	30	-1
Cc1ccc(-n2c(-c3cc(-c4ccco4)[nH]n3)n[nH]c2=S)c(Br)c1	10	nt	1%	nt	-1
CC1(c2nnc(-c3ccc(F)cc3)o2)CC(c2c(Cl)cccc2Cl)=NO1 (stereo not drawn)	2.6	nt	-16%	nt	-13
CC(C)C(C(=O)Nc1nccs1)c1ccc(Cl)cc1 (stereo not drawn)	1.4	nt	8%	8	2
O=C(O)c1ccc(Cl)c(S(=O)(=O)NC(Cc2c[nH]c3ccccc23)C(=O)O)c1 (stereo not drawn)	3.8	nt	nt	nt	-1
O=C(NNS(=O)(=O)c1ccccc1[N+](=O)[O-])c1ccc(F)cc1	3.1	nt	-4%	3	7
CCCc1cc(=O)[nH]c2nnc(SCC(=O)NCc3ccc4c(c3)OCO4)n12	-1.3	nt	nt	nt	-4
CC(C)NC(=O)N1CC(c2ccccc2)C(c2ccc(Cl)cc2)=N1 (stereo not drawn)	1.5	nt	nt	nt	6
CCOc1cc(NC(=S)NCc2ccco2)c(OCC)cc1NC(=O)CC(C)C	-0.7	-4	-4%	-1	-2
COc1cc2c(cc1NC(=O)C1CCCO1)oc1ccccc12 (stereo not drawn)	1.1	22	47%	-1	72
NC(=O)c1ccc(Oc2ccc(C(N)=O)cc2)cc1	-1.7	nt	-7%	nt	-4
O=C(CNc1ccccc1F)N/N=C/C1CC=CCC1 (stereo not drawn)	1.2	nt	1%	12	1
COc1ccc(C(CNC(=O)CCOc2ccccc2)N(C)C)cc1 (stereo not drawn)	5.6	2	-2%	-8	17
CNC(=S)N1CCN(c2ccc(Cl)c(Cl)c2)CC1	2.8	nt	2%	12	-4
CCC(=O)N1c2ccc(S(=O)(=O)NCc3ccccc3)cc2CC1C (stereo not drawn)	-0.6	nt	nt	nt	2
Cc1ccccc1N1CCN(C2CCCN(C(=O)c3cn4c(C)cccc4n3)C2)CC1 (stereo not drawn)	5.2	nt	nt	nt	-2
Cc1ccc(C(=O)NCCC(=O)N2CCC3(CC2)NCCc2[nH]cnc23)cc1	-1.0	nt	nt	nt	-8
O=C(O)c1ccc(NC(=S)NC(=O)c2ccc(-c3ccccc3)cc2)cc1	-2.2	nt	?	26	99
COc1ccc(C2CC(c3ccc(Br)cc3)Nc3nc(N)nn32)cc1 (stereo not drawn)	nt	16	1%	7	-3
COc1ccc(-c2cc(C(=O)NCc3ccco3)c3ccccc3n2)c(OC)c1	3.4	nt	nt	nt	2
COc1cc(C(C(=O)NC(C)(C)C)N(C(=O)CNC(=O)c2cccs2)c2cccnc2)cc(OC)c1OC (stereo not drawn)	-1.6	nt	nt	nt	1
COC(=O)c1ccc(CSc2nnnn2Cc2ccccc2)cc1	3.9	-23	4%	-1	-5
O=C1CC(c2ccccc2)Cc2nc(N3CCc4ccccc4C3)ncc21 (stereo not drawn)	11	-24	-12%	-17	72
O=C(/C=C/c1ccc(F)cc1)NCCc1ccc2c(c1)OCCO2	-1.2	-42	11%	2	14
Cc1ccc(NC(=O)c2cc(S(=O)(=O)c3ccccc3)ccc2Cl)cc1	0.9	-11	1%	-2	-11
Cc1c(Cl)cccc1NC(=S)NCc1cccs1	3.3	-22	0%	-1	-5
S=C1NCCOCCOCCOCCNC(=S)NCCOCCOCCOCCN1	-0.1	-27	1%	-1	1
CC(=O)Nc1nc(-c2ccc3c(c2)CCO3)cs1	1.1	nt	8%	-1	4
CCN(CC)CCP(=O)(c1ccccc1)c1ccccc1	-0.6	-7	-1%	2	-4
O=C(NCc1cn2ccsc2n1)c1c(F)cccc1Cl	-0.3	-31	3%	4	8	Arbovirus anti repeat=-1
CCOCCn1ccc2c(OCC(=O)Nc3cc(OC)ccc3OC)cccc2c1=O	1.2	nt	nt	nt	2
O=C(CSc1nnc(CNC(=O)c2ccco2)o1)Nc1ccccc1C(F)(F)F	-5.6	nt	nt	nt	-6
O=C(Cc1n[nH]c(=O)c2ccccc12)NCc1ccc(Cl)cc1	1.2	nt	-6%	nt	0
N#Cc1nc(Cc2cccc3ccccc23)oc1N1CCC(C(N)=O)CC1	-2.9	-44	-15%	-7	19
CC(CNc1ccc([N+](=O)[O-])c2cccnc12)Nc1c([N+](=O)[O-])cc(C(F)(F)F)cc1[N+](=O)[O-] (stereo not drawn)	1.4	-6	7%	-1	-2
COc1ccc(OC)c(S(=O)(=O)N2CCCc3ccccc32)c1	-0.3	-2	-5%	3	-6

(listing goes on)
SMILES	RecA splice inh	YopH inh	Mtb growth	Arbovirus anti	Mtb betalactam	others
CCc1nc(C(N)=O)c2[nH]c(=O)n(-c3ccccc3F)c2n1	-0.2	nt	nt	nt	2
Cn1c(/C(C#N)=C(\O)c2cc(Cl)sc2Cl)nc2ccccc21	-1.7	nt	nt	nt	3
CSc1nnc(-c2ccc(S(=O)(=O)N3CCCC3)cc2)n1C	-2.8	2	-12%	0	-5
N/C(=N\S(=O)(=O)c1ccccc1)c1ccc([N+](=O)[O-])cc1	-1.0	-8	3%	-1	-4
COc1ccc(OCC(O)Cn2ccnc2C)cc1 (stereo not drawn)	-12	-6	-9%	-8	0
O=C(Nc1ccccc1NS(=O)(=O)c1ccc(F)cc1)C1CCCC1	1.1	nt	5%	4	-9
C/C(=C\c1ccccc1)CN1CCN(C(C)C)C(CCO)C1 (stereo not drawn)	-1.3	nt	nt	nt	-7
CC(Sc1nnc(-c2ccc(Cl)cc2)n1C)C(N)=O (stereo not drawn)	nt	-34	-5%	1	-1
O=C(NCc1ccccc1C(F)(F)F)C1CC(c2ccc(C(F)(F)F)cc2)=NO1 (stereo not drawn)	-0.6	nt	4%	nt	-6
CC1=C(C)CC(C(=O)Nc2nc(C)cs2)C(C(=O)O)C1 (stereo not drawn)	-2.1	nt	nt	nt	4
COc1ccc(N2CC(C(=O)Nc3nnc(Cc4ccccc4)s3)CC2=O)cc1 (stereo not drawn)	-1.0	nt	nt	nt	11
COCCN(CCOC)C(=O)CCn1c(=O)oc2ccccc21	-1.8	17	-1%	-3	-5
Cc1ccc(C2C(C(=O)c3cccs3)=C(O)C(=O)N2c2nnc(C)s2)cc1 (stereo not drawn)	12	nt	-4%	2	-4
CC(C)c1ccc(CNCCCSc2ncccn2)cc1	2.3	nt	nt	nt	0
CCOc1cc(/C=N/NC(=O)c2cccc(S(=O)(=O)N3CCOCC3)c2)ccc1OCC(=O)N(C)C	-2.9	nt	nt	nt	-2
CCOC(=O)c1sc2nc(CC(=O)OC)nc(N(C)CCc3ccccn3)c2c1C	2.9	nt	6%	4	-3
C/C(=N\NC(=O)c1n[nH]c2c1CCC2)c1ccco1	-1.9	nt	0%	nt	-8
COC(=O)C1CCN(c2cnccn2)CC1	-1.0	nt	-3%	3	2
CCOC(=O)c1ccc(NC(C)=O)c([N+](=O)[O-])c1	-1.7	nt	0%	nt	-6
CC(=O)Nc1ccc(NC(=O)C2CC(=O)N(C(C)C)C2)cc1 (stereo not drawn)	-0.8	nt	nt	nt	0
O=C(/C=C/c1cccc([N+](=O)[O-])c1)NCCSCc1ccc(Cl)cc1	1.9	-19	11%	14	23
CCOc1ccccc1N1CCN(S(=O)(=O)c2ccc3c4c(cccc24)C(=O)N3)CC1	5.8	8	-4%	4	4
COC(=O)C(c1ccccc1)C1(O)CC(C)N(C)CC1C (stereo not drawn)	-1.2	nt	nt	nt	-2
COc1ccc(C2NC(c3ccc(OC)c(OC)c3OC)C(C)C(=O)C2C)c(OC)c1OC (stereo not drawn)	3.0	-6	-3%	-4	-5
CCC(C)NC(=O)C1CCCN(S(=O)(=O)c2ccc3c(c2)CC(C)N3C(=O)C2CC2)C1 (stereo not drawn)	1.6	nt	nt	nt	0
CCOCCCn1c(=S)[nH]c2cc(C(=O)N3CCN(C)CC3)ccc2c1=O	0.7	-19	-9%	1	-2
CCn1c(CSc2nc(C)cs2)nc2cc(S(=O)(=O)N(C)C)ccc21	-0.4	-51	2%	1	?
C=CCn1cnc2c(c1=O)c1nc3ccccc3nc1n2-c1ccc(C)cc1	1.8	-27	nt	2	-7
Cc1c(C)c2c(OCC(=O)N[C@@H](C)C(=O)O)cc3c(c2oc1=O)CCC(C)(C)O3	-1.0	nt	nt	nt	-7
CCCN1CCN(CCCNC(=O)Cn2nc(C)n3c(cc4cc(OC)ccc43)c2=O)CC1	1.1	nt	nt	nt	2

6 entries drawn at random from those above, as already listed:
SMILES	RecA splice inh	YopH inh	Mtb growth	Arbovirus anti	Mtb betalactam	others
COc1ccc(C2NC(c3ccc(OC)c(OC)c3OC)C(C)C(=O)C2C)c(OC)c1OC (stereo not drawn)	3.0	-6	-3%	-4	-5
C=CCn1cnc2c(c1=O)c1nc3ccccc3nc1n2-c1ccc(C)cc1	1.8	-27	nt	2	-7
COC(=O)C(c1ccccc1)C1(O)CC(C)N(C)CC1C (stereo not drawn)	-1.2	nt	nt	nt	-2
CCn1c(CSc2nc(C)cs2)nc2cc(S(=O)(=O)N(C)C)ccc21	-0.4	-51	2%	1	?
CCOCCCn1c(=S)[nH]c2cc(C(=O)N3CCN(C)CC3)ccc2c1=O	0.7	-19	-9%	1	-2
CCC(C)NC(=O)C1CCCN(S(=O)(=O)c2ccc3c(c2)CC(C)N3C(=O)C2CC2)C1 (stereo not drawn)	1.6	nt	nt	nt	0

(continued)
SMILES	RecA splice inh	YopH inh	Mtb growth	Arbovirus anti	Mtb betalactam	others
O=C(NC(NC(=S)Nc1ccccc1O)C(Cl)(Cl)Cl)c1ccco1 (stereo not drawn)	2.3	-10	3%	-6	0
Cc1ccc(N2CCN(c3ccc(C)cc3)C2c2cccnc2)cc1	-0.7	-9	12%	7	6
CCCCC(CC)C(=O)Nc1cc(C(=O)NCCC)ccc1N1CCC2(CC1)CC(c1ccccc1)=NO2 (stereo not drawn)	1.0	nt	nt	nt	-2
CC(c1ccccn1)N(C)C(=O)c1ccc2nc(Cc3ccccc3F)oc2c1 (stereo not drawn)	2.5	nt	nt	nt	-4
CN(C)c1ccc(C2N3CC4(C)CN2CC(C)(C3)C4O)cc1 (stereo not drawn)	-0.2	nt	-2%	-2	-1	Arbovirus anti repeat=-2
COc1ccc(C(=O)Nc2nnc(-c3ccccc3)o2)cc1OC	2.2	-50	?	-15	92
Cc1cccc(Cl)c1NC(=O)N1CCN(c2ccnc3cc(Cl)ccc23)CC1	1.2	nt	0%	nt	-8
C=CCn1c2ccccc2c2nnc(SCC(=O)OCN3C(=O)c4ccccc4C3=O)nc21	0.8	-59	-7%	-4	-10
COc1ccccc1N1CCN(C2CCCN(C(=O)CC(F)(F)F)C2)CC1 (stereo not drawn)	-1.3	nt	nt	nt	-5
S=c1[nH]nc(COc2ccc3c(c2)OCO3)n1-c1ccccc1	-1.5	6	2%	9	-8
O=C(CSc1nnc(-c2ccc(F)cc2)c2ccccc12)Nc1c(F)cccc1F	nt	2	2%	10	-4
COc1cccc(NC(=O)CSc2ccc3nnc(CCNC(=O)c4ccccc4)n3n2)c1	0.5	nt	nt	nt	4

Assay outcomes: PubChem, several laboratories
